High-throughput results deposited in PubChem BioAssay by National Center for Advancing Translational Sciences (NCATS).
A647 fluor – A647 region autofluorescence. Compound fluorescence, A647 channel (570/671 nm), Tris buffer. 59,000 tested, under 10 active. AID 592. max dye-equivalent concentration, M; active means above 1 µM dye equivalent; inconclusive means 0.1 to 1 µM; inactive means 0.1 µM or less;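 also: values scaled relative to a standard on each plate; highest value over a series up to 38 µM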
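Tris 100 mM pH 8.0; cpd + A647 stds pin-transferred; 15 min RT; CCD imager, ex 570/em 671. Output = A647-equivalent conc. per cpd conc.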
Resorufin fluor – compounds fluorescent in resorufin spectral region | Compound fluorescence, resorufin region 547/598 nm, buffer; active compounds read high | max dye-equivalent concentration, M | actives 0.04% (n = 59,000) | AID 588; active = above 10 nM dye equivalent; inconclusive = 1 to 10 nM; inactive = 1 nM or less; a few of its hits are not listed in these tables; also: highest value over a series up to 38 µM
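Intrinsic fluorescence profiled in the resorufin window (ex 547 nm, em 598 nm) after 15 min at room temperature in pH 8.0 Tris buffer (100 mM); responses normalized against a six-point resorufin standard series as dye-equivalent concentration.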
TSHR agonist – agonists of human thyroid stimulating hormone receptor | P16473 | HEK293-CNG-TSHR cells (CNG channel as cAMP sensor), membrane potential dye, cAMP | Potency, µM (top dose mostly 57.1 µM), without a hit: top-dose activation, actives largely listed as activators | actives 0.48% (n = 73,000) | AID 926; active = well fitted activation curve of enough size with the parental cells flat; inconclusive = any curve in the parental cells; inactive = parental cells flat and receptor cells flat or falling; also: potency is read from the fitted curve at half-maximal effect; % of control where 0% means no effect; weak receptor curves with flat parental cells got no call and are not listed
Target sequence (P16473 whole entry, looked up): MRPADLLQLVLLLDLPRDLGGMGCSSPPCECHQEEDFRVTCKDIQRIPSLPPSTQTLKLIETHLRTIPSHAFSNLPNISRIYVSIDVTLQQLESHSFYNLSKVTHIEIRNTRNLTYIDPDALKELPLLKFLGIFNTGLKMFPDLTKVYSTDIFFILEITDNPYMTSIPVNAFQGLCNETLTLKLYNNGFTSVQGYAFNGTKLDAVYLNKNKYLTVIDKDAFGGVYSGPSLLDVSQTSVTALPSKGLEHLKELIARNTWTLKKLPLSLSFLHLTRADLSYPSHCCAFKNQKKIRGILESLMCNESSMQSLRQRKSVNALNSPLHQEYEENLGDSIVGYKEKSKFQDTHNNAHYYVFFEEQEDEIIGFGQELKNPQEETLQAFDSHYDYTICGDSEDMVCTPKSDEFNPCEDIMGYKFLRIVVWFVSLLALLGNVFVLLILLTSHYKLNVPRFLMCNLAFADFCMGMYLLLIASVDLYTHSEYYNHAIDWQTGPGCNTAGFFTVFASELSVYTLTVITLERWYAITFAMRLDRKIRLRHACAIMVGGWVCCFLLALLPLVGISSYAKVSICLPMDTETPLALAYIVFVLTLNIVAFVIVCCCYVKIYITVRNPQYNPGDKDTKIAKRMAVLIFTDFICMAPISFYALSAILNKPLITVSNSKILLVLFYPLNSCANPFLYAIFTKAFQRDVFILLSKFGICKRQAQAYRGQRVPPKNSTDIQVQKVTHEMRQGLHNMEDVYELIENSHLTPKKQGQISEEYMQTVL
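HEK 293 cells stably expressing TSHR and a modified CNG channel, with CNG-only parental cells as counterscreen, were preloaded 60 min at room temperature with membrane potential dye containing 100 uM RO 20-1724. Compound exposure was 30 min, and depolarization was read as fluorescence at 590 nm.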
AID923 – qHTS Assay for Allosteric/Competitive Inhibitors of Caspase-1: Spectroscopic Profiling in AFC Spectral Region. actives 1.1% (n = 75,000). Potency, µM (series often up to 57.5 µM), for inactives: at the highest dose fluorescence increase, usual class: activators. compound fluorescence, AFC spectral region (405/520 nm); almost no hit is shown here; active = well fitted activation curve with a large enough effect; inconclusive = small, poorly fitted or top-dose-only effect;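 also: potency is read from the fitted curve at half-maximal effect; 0% is about no effect; scaled to a free AFC standard on each plate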
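Compound autofluorescence profiled at 405 nm ex/520 nm em during kinetic caspase 1 run (50 nM enzyme, 5 uM Ac-WEHD-AFC, HEPES pH 7.5, 10 mM DTT). Titration up to 57 uM; baseline from regression intercept, normalized to AFC standard curve.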
A488 autofl – compound autofluorescence in A488 spectral region. compound autofluorescence, A488 spectral region, dye equivalency; active compounds read high. max dye equivalency, M. actives 0.1% (n = 59,000). AID 591; active = above 10 nM dye equivalent; inconclusive = 1 to 10 nM; inactive = 1 nM or less; about half of its hits are not listed in these tables;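 also: highest value over a series up to 38 µM; compound alone in buffer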
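Compounds pin-transferred into 100 mM Tris buffer, pH 8.0, incubated 15 min at room temperature, then imaged with 480 nm excitation/540 nm emission filters. Fluorescence converted to Alexa 488 dye-equivalent concentration via an on-plate six-point A488 standard curve.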
* = called active by the depositor; i = inactive; u = inconclusive; x = no result given; [ ] = remark or other dose. These rows are one share of the data; count on the stated rates, not on these rows.

smiles | TSHR agonist | Resorufin fluor | A647 fluor | A488 autofl | AID923
COCCn1c(C(C)C)nc2oc3ccccc3c(=O)c2c1=O | u | i | 1e-09 | i | -0.2%
Cc1ccc2nc(NC(=O)C3CCN(S(=O)(=O)c4cccc5nsnc45)CC3)sc2c1 | -8% | i | 1e-09 | i | -0.9%
N#Cc1nc(Cc2ccccc2)oc1NCCc1ccccc1 | u | i | 1e-09 | i | 0.4%
O=C(Nc1ccc2c(c1)OCCO2)C1CCN(c2nnnn2-c2ccccc2)CC1 | 13% | i | 1e-09 | i | 0.8%
COc1ccc(Oc2ncc3nc(CCc4ccccc4)c(=O)n(CCC#N)c3n2)cc1 | u | i | 1e-09 | i | 6.4%
O=C(Cn1cc(C(=S)N2CCOCC2)c2ccccc21)N1CCOCC1 | -5% | i | 1.8e-08 | i | -0.4%
COc1cccc(Cn2c(=O)c(-c3ccccc3)nc3cnc(OC)nc32)c1 | 4% | i | 9.5e-09 | i | 4.5%
CCC(C(=O)Nc1ncccn1)(C(F)(F)F)C(F)(F)F | -8% | i | 1e-09 | i | -1.4%
CC(=O)N(C)C1(c2nnnn2CCOC(=O)Nc2ccc(Cl)cc2)CCCCC1 | -4% | i | 1.3e-08 | i | 2.4%
COc1ccccc1CN1C(=S)SC(C)(C)C1NO (centres undefined) | 2% | i | 5e-08 | i | -0.3%
C/C(=N\O)C(=O)NCc1ccncc1 | -3% | i | 3e-08 | i | -0.5%
N#Cc1nc(COc2ccc(Cl)cc2)oc1N1CCCC1 | u | i | 8.3e-09 | i | 0.4%
CCCn1c(SCC(=O)N2CCCCC2)nnc1-c1ccco1 | 10% | i | 6.7e-09 | i | -1.0%
O=c1c2cnn(-c3ccccc3)c2nc(-c2ccco2)n1-c1ccccc1 | u | x | x | x | 1.8%
C=COCCn1c(-c2nonc2N)nc2ccccc21 | u | x | x | x | 2.1%
CCSc1nnc(NC(=O)CSc2nc3c(c(=O)n2-c2ccccc2)SCC3)s1 | x | i | 1e-09 | i | 0.8%
Cc1ccc(N2CCN(C(=O)CNS(=O)(=O)c3ccc(Br)s3)CC2C)cc1 (centres undefined) | u | i | 2.3e-08 | i | 0.3%
CC1(C)Cc2ccccc2-c2nnc(-c3ccccc3)n21 | u | x | x | x | -0.7%
COc1ccc(OC)c2[nH]c(=O)c(CCNC(=O)c3ccc(S(=O)(=O)N(C)C)cc3)cc12 | -6% | i | 1e-09 | i | 0.6%
O=C(Oc1ccccc1C(=O)N1CCOCC1)c1ccc(Br)cc1 | 1% | x | x | x | -0.4%
c1ccc(-n2c(Cc3cn4ccsc4n3)nnc2N2CCOCC2)cc1 | -3% | i | 1e-09 | i | -0.7%
CCOc1ccccc1NC(=O)NC1CCN(CC(=O)Nc2ccc3c(c2)OCCO3)CC1 | 1% | i | 9e-09 | i | -1.3%
CN(CCC(=O)Nc1ccc2c(c1)OCO2)Cc1ccccc1 | -7%[11.4 µM] | i | 2.7e-08 | i | -0.9%
Cc1ccc(N=Cc2ccc(O)cc2O)cc1F | u | x | x | x | 6.7%
COCCCNC(=O)CSC1=Nc2ccccc2C2=NC(Cc3c[nH]c4ccccc34)C(=O)N12 (centres undefined) | -1% | i | 3.8e-09 | i | 1.2%
NC(=S)NNC(N)=S | 6% | x | x | x | -0.4%
Cc1ccc(N(CC(O)COCc2ccco2)S(=O)(=O)c2ccc(C)cc2)cc1 (centres undefined) | 19% | i | 8.1e-09 | i | 0.0%
O=C(COC(=O)Cn1cnc2ccccc21)NCCC1=CCCCC1 | 8% | i | 1e-09 | i | -0.4%
CC(C)CNC(=O)COc1ccc2c3c(c(=O)oc2c1)CCC3 | -1% | i | 1.9e-08 | i | -0.8%
CCN1CCCC1CNc1ncnc2c1[nH]c1ccc(F)cc12 (centres undefined) | -2% | i | 5.8e-09 | i | 3.0%
COc1ccc(Oc2ncc3ncc(=O)n(Cc4ccc(F)cc4)c3n2)cc1 | u | i | 2.6e-08 | i | 2.2%
COC(=O)C1(C)Nc2ccccc2C(=O)N1c1ccccc1C (centres undefined) | 16% | x | x | x | 2.8%
CCSCc1nnc(SCC(=O)Nc2nc3ccccc3s2)n1C | 7% | i | 3.1e-08 | i | -0.7%
CCOC(=O)N1CCN(C(=O)c2ccccc2N(C)S(C)(=O)=O)CC1 | 1% | i | 4.2e-08 | i | 0.7%
CCN(CC)CCCN1C(=O)C(O)=C(C(=O)c2sc(C)nc2C)C1c1ccco1 (centres undefined) | x | i | 2.4e-09 | i | 3.1%
CC(=O)c1c(C)n([O-])c2ccccc2[n+]1=O | -11% | x | x | x | 0.9%
CC1CCCCN1S(=O)(=O)c1ccc(NC(=O)c2cccc(-n3cnnn3)c2)cc1 (centres undefined) | 6% | i | 4.9e-09 | i | 0.3%
Cc1cc2c(N3CCCCC3C)ncnc2s1 (centres undefined) | 20% | i | 1e-09 | i | 1.5%
COc1ccc(NC(=O)C2CCCN(c3c4c(nc5ncnn35)CCC4)C2)cc1 (centres undefined) | 3% | i | 2.7e-08 | i | 1.4%
COc1cccc(-c2nn(-c3ccccc3)cc2CO)c1 | -47%[inhibitor] | i | 6.6e-09 | i | -3.2%
c1ccc(CCc2cccnc2)nc1 | 0%[11.4 µM] | i | 1.5e-08 | i | 4.3%[11.5 µM]
CC1(C)CC(=O)C=C(Nc2ccc(C(=O)O)cc2)C1 | 2%[11.4 µM] | i | 1e-09 | i | 1.9%
Cc1nonc1NC(=O)CSc1nc(C2CCCCC2)nc2ccccc12 | u | i | 3.2e-08 | i | -0.3%
COc1ccc(-c2nnc(SCC(=O)Nc3ccc(C)cc3)n2C)cc1 | 0% | i | 3.8e-08 | i | -0.2%
CC(=O)N1CCN2C(=O)C1CCCC(=O)c1cc(C3CCCCC3)ccc12 (centres undefined) | -3% | i | 1e-09 | i | -0.9%
CN1CCN(CCc2nc3cc(NC(=O)COc4ccccc4)ccc3n2C)CC1 | 21% | i | 8.2e-09 | i | -0.4%
Cc1cccc(CNc2ccnc(-c3ccc(C(=O)N(C)C)cc3)n2)c1 | x | i | 1e-08 | i | -1.4%
COC(=O)c1oc2ccccc2c1NC(=O)CN1CCCC1 | 2% | i | 1.4e-09 | i | -3.6%
COc1ccc(Nc2cc(C(=O)NCCCN3CCN(C)CC3)c3ccccc3n2)cc1 | -3%[11.4 µM] | i | 3.3e-08 | i | -0.7%
c1ccc(COn2nnc3ccccc32)c(COn2nnc3ccccc32)c1 | u | i | 3.3e-09 | i | -0.5%

The results go on.
smiles | TSHR agonist | Resorufin fluor | A647 fluor | A488 autofl | AID923
Cc1cccc(Nc2nc(N)nc(CN3CCC(C(N)=O)CC3)n2)c1C | -10% | i | 1e-09 | i | 0.6%
Cc1ccc(S(=O)(=O)N2Cc3ccccc3CC2C(=O)Nn2cnnc2)cc1 (centres undefined) | -1% | i | 3.5e-09 | i | -0.1%
Cc1cnc(NC(=O)CSc2nnc(-c3ccccc3)o2)s1 | 0% | i | 2.4e-09 | i | 0.3%
O=C(NC1CC2CCC1C2)c1ccc(CN2CCOCC2)cc1 (centres undefined) | -1% | i | 7.2e-09 | i | 0.8%
COc1cccc(C(c2nnnn2CCc2ccccc2)N2CCN(c3ccccc3)CC2)c1OC (centres undefined) | u | i | 2.9e-08 | i | -0.5%
COc1ccccc1-c1nnc(SCC(=O)Nc2c(Cl)cccc2Cl)o1 | 12% | i | 6.9e-09 | i | 0.0%
Cc1cccc(OCC(=O)Nc2ccc3c(c2)OCO3)c1C | u | x | x | x | -0.1%
COc1ccc2cc3cc(C(=O)Nc4ccccc4N4CCN(C)CC4)oc3nc2c1 | u | i | 1e-09 | i | 0.8%
CCN(CC)CCNC(=O)C1c2cc(OC)c(OC)cc2C(=O)N2CCc3ccccc3C12 (centres undefined) | -1% | i | 1e-09 | i | -0.3%
COc1cc(C(C#N)N2CCOCC2)ccc1O (centres undefined) | -4% | i | 3.4e-09 | i | -0.6%
CCOC(=O)c1cc(NC(=O)NCc2ccco2)c(C)nc1C | 10µM* | i | 1e-09 | i | 0.9%
Cc1ccc(-c2nnc(N3CCN(C(=O)CSc4ncn[nH]4)CC3)c3ccccc23)cc1 | -4% | i | 2e-08 | i | 0.4%
Nc1c(S(=O)(=O)c2ccccc2)c2nc3ccccc3nc2n1/N=C/c1cccc(O)c1 | -12% | i | 2.3e-08 | i | 0.7%
Nc1nc(CN2CCN(c3ccccn3)CC2)nc(Nc2ccc(Cl)cc2)n1 | 5% | i | 2.1e-08 | i | 1.5%
COc1ccccc1NC(=O)CS(=O)(=O)c1cccc2nsnc12 | -3% | i | 1e-09 | i | 1.8%
O=C(Nc1ccncc1)c1cc([N+](=O)[O-])ccc1Cl | -3% | x | x | x | 1.6%
O=C(CCn1c(=O)[nH]c2ccccc2c1=O)N1CCN(c2ccc(Cl)cc2)CC1 | 19% | i | 1.1e-08 | i | 0.0%
COC(=O)NCc1ccc(CNC(=O)OC)cc1 | -8% | i | 1e-09 | i | 0.4%
CCCOc1ccc(CN(CCO)CCO)cc1C(=O)OC | 8% | i | 1.3e-08 | i | -1.7%
CCSc1nc(O)cc(=O)n1-c1ccc(OC)cc1 | 2% | x | x | x | -1.9%
CCC(Sc1nc2c(c(=O)[nH]1)CCC2)C(=O)Nc1cccc(OC)c1 (centres undefined) | 7% | i | 2.8e-08 | i | 2.3%
COc1ccc(CCn2c(NCc3ccco3)nc3c2c(=O)[nH]c(=O)n3C)cc1 | -10% | i | 2.3e-08 | i | -1.2%
COc1ccc(CCNC(=O)C2CCCN(S(=O)(=O)c3cnc[nH]3)C2)cc1OC (centres undefined) | -3% | x | x | x | 2.2%
COc1ccc(C(=O)NCc2oc(-c3ccccc3)cc2C(=O)O)cc1 | 12% | i | 3e-08 | i | -0.8%
CC1CCc2cc(F)ccc2N1C(=O)CCC(=O)O (centres undefined) | -7% | i | 1e-09 | i | 0.0%
COc1ccc(-c2noc(CSc3nc(-c4ccccc4)cc(=O)[nH]3)n2)cc1OC | 16µM* | i | 4.7e-09 | i | 0.4%
CCCSc1nc2c(c(=O)[nH]c(=O)n2C)n1CCc1ccccc1 | x | i | 2.6e-08 | i | 0.2%
COCCNc1nc(-c2ccccc2Cl)nc2ccccc12 | 15% | i | 1.7e-08 | i | 0.9%
CCCCc1nc2sc3c(c2c(=O)[nH]1)CCC3 | x | i | 9.6e-08 | i | x
CCn1cnc2cc(NCc3ccc(C)cc3)ccc21 | -21% | i | 1e-09 | i | 1.0%
C=CCc1ccc(OCC(O)CN2CCCCC2)c(OC)c1 (centres undefined) | x | i | 2e-09 | i | -1.8%
CCn1c(C(=O)N2CCCC(C(=O)O)C2)cc2sccc21 (centres undefined) | 9% | i | 2.7e-08 | i | 1.7%
CSC1=C(C#N)C2(CCCC2)C(C#N)=C(N)N1 | -17% | i | 3.8e-08 | i | 0.2%
Cc1cccc(NC(=O)CS(=O)(=O)c2c[nH]c3ccccc23)c1C | -2% | i | 1e-09 | i | 0.3%

An excerpt from above in order of molar mass, lowest first.
smiles | TSHR agonist | Resorufin fluor | A647 fluor | A488 autofl | AID923
CSC1=C(C#N)C2(CCCC2)C(C#N)=C(N)N1 | -17% | i | 3.8e-08 | i | 0.2%
CCn1cnc2cc(NCc3ccc(C)cc3)ccc21 | -21% | i | 1e-09 | i | 1.0%
C=CCc1ccc(OCC(O)CN2CCCCC2)c(OC)c1 (centres undefined) | x | i | 2e-09 | i | -1.8%
CCn1c(C(=O)N2CCCC(C(=O)O)C2)cc2sccc21 (centres undefined) | 9% | i | 2.7e-08 | i | 1.7%
COCCNc1nc(-c2ccccc2Cl)nc2ccccc12 | 15% | i | 1.7e-08 | i | 0.9%
